# Screens deposited in PubChem BioAssay by several laboratories.
# eIF4H inh: inhibitors of RNA binding by human eIF4H. Q15056. eIF4H fluorescence polarization binding assay. inhibition, % at 35 µM. 290,000 tested, 0.94% active;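 active means 50% or more with normal probe brightness, or confirmed in later tests; about a fifth of its hits are not listed in these tables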;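 further: calls also rest on retests at 20 µM and on dose response follow-up; 0% = protein and probe with vehicle and 100% = probe without protein; strong numbers were not always called active; many hits fall short of the cut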
# CSC inhib: cancer stem cell inhibition; cancer stem cell-like cells viability, luminescence; inhibition, % at 7.5 µM; 300,000 tested, 1.1% active;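 active means mean at 75% or more and at least half the replicates too; tested in HMLE shEcad cells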;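 further: 0% = median of negative and 100% = median of positive control wells; the first replicate is given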
# MT1-MMP act inh: blocks activation of human MT1-MMP; 360,000 tested, 0.061% active; P50281; HT1080 RFP-PRO-GFP cells, GFP/RFP ratio fluorescence, overnight; percent of plate control window, DMSO zero; GFP/RFP ratio change, % at 20 µM;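 active means GFP/RFP ratio change of at least 30% with cell ATP level not reduced by more than half and red fluorescence within 50% of control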; further: strong numbers were not always called active
#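 Material: RFP-PRO-GFP reporter HT1080 cells. Dosing: single-point 20 µM compound, 1% DMSO. Controls: DMSO and RFP-L50D-GFP cell wells. Timing: cells overnight before dosing, compound overnight, 37 °C, 5% CO2. Measure: GFP/RFP fluorescence ratio.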
# Rce1 inhib: yeast Ras-converting enzyme inhibition; AID 2563; calls only; yeast membranes, quenched prenylated peptide cleavage fluorescence; Q03530; 290,000 tested, 0.27% active;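 active means fall in fluorescence gain of 50% or more versus controls, with final raw signal at or below 3038400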;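 further: plate controls were neutral control wells for no effect and wells lacking membranes for full effect; tested at 10 µM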
# Target sequence (Q03530 whole entry, looked up): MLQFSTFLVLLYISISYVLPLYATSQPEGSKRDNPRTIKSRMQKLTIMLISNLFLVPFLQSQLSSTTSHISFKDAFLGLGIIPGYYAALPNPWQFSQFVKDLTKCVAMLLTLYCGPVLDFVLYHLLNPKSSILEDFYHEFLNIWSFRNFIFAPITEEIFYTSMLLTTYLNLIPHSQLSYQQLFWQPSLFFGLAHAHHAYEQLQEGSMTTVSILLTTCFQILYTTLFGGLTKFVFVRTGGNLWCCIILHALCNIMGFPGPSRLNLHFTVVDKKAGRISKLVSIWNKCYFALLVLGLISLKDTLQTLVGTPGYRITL
# PABP polyA inh: PABP-poly(A) binding inhibition; PABP-poly(A) RNA binding, fluorescence polarization; inhibition, % at 35 µM; 290,000 tested, 1% active; AID 2014;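 active means 50% or more with normal probe brightness, or confirmed in later tests; about a fifth of its hits are not listed in these tables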;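 further: calls also rest on retests at 20 µM and on dose response follow-up; controls were probe without protein and protein plus probe with vehicle; some compounds called inactive have numbers as strong as hits; many hits fall short of the cut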
# HIV Env fusion: inhibitors of HIV Env-mediated cell fusion | HeLa-JRFL Env/CEM21 cell fusion, luciferase | inhibition, % at 12.3 µM | 360,000 tested, 1.1% active | AID 651610;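 active means mean replicate inhibition score of at least 50 and every replicate individually at or above 50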;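 further: 0% = plate neutral controls and 100% = maraviroc near 300 nM; one replicate is shown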
# Yeast UUG start: alters start codon recognition fidelity in yeast; activity score, % at 18.7 µM; 350,000 tested, 0.13% active; S. cerevisiae UUG-firefly luciferase reporter, luminescence/redox ratio;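 active means replicate mean at a twofold rise or more, about +100% in these data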;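 further: firefly luciferase made from a UUG start codon reports start codon fidelity; reporter light over untreated wells divided by growth signal over untreated wells; some hits fall short of that in this replicate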
# eIF4H inh retest: second read-out of eIF4H inh, no call of its own (marks repeat the call); inhibition, %; compound at 20 µM; confirmation average;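 mean of two retest wells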
# PABP polyA inh retest: second read-out of PABP polyA inh, no call of its own (marks repeat the call); inhibition, %; compound at 20 µM; confirmation repeats;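 mean of two retest wells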
# MT1-MMP act inh RFP: recorded beside MT1-MMP act inh, whose call it bears; RFP signal change, %; measured here: RFP expression control read;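 0 = vehicle wells; hits needed this value within 50% of zero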
# * = called active by the depositor; i = inactive; x = not tested or not shown; & = joins results of further samples; [ ] = remark or other dose. Rows are unselected. About 3% of those tested had a hit in this group.
SMILES,eIF4H inh,CSC inhib,MT1-MMP act inh,MT1-MMP act inh RFP,Rce1 inhib,PABP polyA inh,HIV Env fusion,Yeast UUG start,others
CCc1ccc(OCC(=O)NC(=S)Nc2ccc(C(=O)O)cc2)cc1,-1,4,-10,2,i,6,10,-14,
CCCCS(=O)CC(CS(=O)CCCC)OC(=O)c1ccc(C)cc1 (configuration not stated),1,-12,19,9,i,3,-14,4,
CCCOc1ccc(C2C(=O)N(C3CCCCC3)CC(=O)N2CCC)cc1OC (configuration not stated),-2,-11,-1,-3,i,-1,18,x,
O=C(CCCCCN1C(=O)c2cccc3cccc(c23)C1=O)N1CCOCC1,-10,1,-8,-1,i,-9,x,-5,
CCCNC(=O)CCNC(=O)c1ccc(C(C)(C)C)cc1,6,-11,10,4,i,-2,x,-15,
O=C(NC12CC3CC(CC(C3)C1)C2)N1CCN(c2ncccn2)CC1,-4,-2,x,x,i,-9,0,x,
CCC(=O)NC(c1ccco1)c1cc(Br)c2cccnc2c1O (configuration not stated),x,x,6,1,x,x,-4,-12,
FC(F)Oc1ccc(NC(=S)N2CCc3ccccc32)cc1,-4,x,9,1,i,-14,8,x,
Clc1ccc(SCc2cc(-c3ccc(Cl)cc3)on2)cc1,-12,10,-2,1,i,5,x,-30,
c1ccc(CSc2ncn(-c3ccccc3)n2)cc1,-5,6,-1,-1,i,1,x,-14,
COc1cc(C(=O)Nc2ccc(S(=O)(=O)NC(C)(C)C)cc2)cc(OC)c1OC,-1,x,23,-2,i,1,14,10,
CCN(CC)CCN1CNC(=S)N(c2ccccc2OC)C1,4,-2,2,3,i,0,2,-13,
Cc1ccc(/C=C/C(=O)N2CCc3ccccc32)o1,68,x,-3,3,i,-2,-88,x,eIF4H inh retest=5;PABP polyA inh retest=14
CCOc1ccc(-n2cc(C(=O)Nc3cccc(Cl)c3)c3cc(OC)c(OC)cc3c2=O)cc1,2,0,-7,-10,i,-2,-4,-15,
CCOC(=O)N1CCC(NC(=O)C2CCN(S(=O)(=O)c3cccc4cccnc34)CC2)CC1,0,x,x,x,i,4,x,x,
NS(=O)(=O)c1ccc(CCNC(=O)c2ccccc2-c2ccccc2)cc1,1,-3,0,2,i,1,16,2,
OC(c1cc(F)cc(Cl)c1)c1ncc(-c2ccc(Cl)cc2)[nH]1 (configuration not stated),x,x,4,-4,x,x,0,-17,
NC(=O)c1nsc(C(=O)N(c2ccccc2)C(C(=O)NCC2CCCO2)c2ccc(F)cc2)c1N (configuration not stated),1,x,-2,-2,i,7,-6,-13,
Cc1cc(NC(=O)c2ccc(C)o2)no1,0,10,0,5,x,-9,-17,-11,
O=C(COC(=O)c1ccccc1NS(=O)(=O)c1cc([N+](=O)[O-])ccc1Cl)c1ccccc1,1,-3,x,x,i,-6,x,x,
CC1CCN(C(=O)CSc2nnc(-c3ccc(S(=O)(=O)N4CCOCC4)cc3)n2C)CC1,53*,-10,5,3,i,40*,8,-9,eIF4H inh retest=94*;PABP polyA inh retest=78*
Cc1cc(Nc2ccccc2C(=O)O)n2ncnc2n1,x,x,-3,0,x,x,-9,-16,
Cc1cccc(CCNC(=O)CCc2c(C)nc3ncnn3c2C)c1,-4,-12,-1,1,x,-11,-12,-18,
O=C(CCS(=O)(=O)c1ccccc1)Nc1nc2c(s1)CCCC2,-13,2,3,-4,i,5,60*,-7,
O=C(Nc1ccc(C(=O)O)cc1)/C(=C\c1ccccc1)NC(=O)c1ccc(Br)cc1,5,2,-2,-4,i,14,10,-10,
O=S(=O)(NCC1CCCO1)c1ccc2oc3ccc(S(=O)(=O)NCC4CCCO4)cc3c2c1 (configuration not stated),-3,1,-5,-1,i,0,x,9,
COc1ccc(C(C)(C)C)cc1NC(=O)C1C2C=CC(C2)C1C(=O)O (configuration not stated),-4,6,4,9,i,2,-28,-3,
CC(C)CN(C(=O)C1CCCCC1)C1CCS(=O)(=O)C1 (configuration not stated),x,1,1,2,i,x,16,-5,
N#C/C(=N/Nc1ccccc1[N+](=O)[O-])C(N)=S,-5,-7,13,-15,i,6,0,-17,
COc1cc(/C=C2\SC(=S)N(CCCCC(=O)O)C2=O)ccc1OS(=O)(=O)c1ccc(C)cc1,x,6,2,-4,i,x,-43,-1,
COc1ccc(-c2nc3cnccn3c2NC(C)(C)CC(C)(C)C)cc1O,-9,0,4,-22,i,-11,9,-1,
COc1cc(C(=O)Nc2ccc(Oc3ncnc4sc(-c5ccccc5)cc34)cc2)cc(OC)c1OC,-7,x,7,2,i,-7,x,-15,
CC(C)(C)OC(=O)NCCC(=O)N/N=C/c1cccc2nccnc12,4,3,-3,1,i,-1,2,1,
COc1ccc(/C=C2\SC(=S)N(CCCC(=O)Nc3ccccn3)C2=O)cc1OC,10,30,-11,0,i,8,-18,x,
Cc1cccc(Oc2ccccc2NC(=O)c2cnccn2)c1,-3,7,-2,-1,i,10,x,-13,
O=C(Cc1cccs1)N(Cc1ccco1)C1(C(=O)NC2CCCC2)CCCCC1,3,-4,0,7,i,4,x,-2,

# 4 entries drawn at random from those above:
SMILES,eIF4H inh,CSC inhib,MT1-MMP act inh,MT1-MMP act inh RFP,Rce1 inhib,PABP polyA inh,HIV Env fusion,Yeast UUG start,others
O=C(Cc1cccs1)N(Cc1ccco1)C1(C(=O)NC2CCCC2)CCCCC1,3,-4,0,7,i,4,x,-2,
COc1ccc(/C=C2\SC(=S)N(CCCC(=O)Nc3ccccn3)C2=O)cc1OC,10,30,-11,0,i,8,-18,x,
Cc1cccc(Oc2ccccc2NC(=O)c2cnccn2)c1,-3,7,-2,-1,i,10,x,-13,
COc1cc(C(=O)Nc2ccc(Oc3ncnc4sc(-c5ccccc5)cc34)cc2)cc(OC)c1OC,-7,x,7,2,i,-7,x,-15,

# The listing continues.
SMILES,eIF4H inh,CSC inhib,MT1-MMP act inh,MT1-MMP act inh RFP,Rce1 inhib,PABP polyA inh,HIV Env fusion,Yeast UUG start,others
CN(C(=O)Nc1ccc(Cl)cc1)c1c2c(nn1C)CCCC2,-3,-15,3,8,i,-4,-4,-10,
Cc1cc(C)n(-c2ccc(C(=O)OCC(=O)N(CC(C)C)C3CCS(=O)(=O)C3)cc2)n1 (configuration not stated),-5,4,3,0,i,-15,-28,-5,
CCc1ccc(N2CC(C(=O)NNC(=O)c3ccc(F)cc3)CC2=O)cc1 (configuration not stated),x,-4,1,5,i,x,-13,-11,
CCC1(C)SC(NC(C)=O)=NN1C(C)=O (configuration not stated),-1,-11,2,0,i,3,12,x,
COc1cccc(C(=O)NC2CCN(CC(=O)Nc3c(C)cc(C)cc3C)CC2)c1,-4,8,x,x,i,-2,x,x,
CCOc1cc(N2CCOCC2)c(OCC)cc1NC(=O)Cn1[nH]c(=O)c2ccccc2c1=O,4,-5,1,4,i,18,-33,-4,
CC(=O)N(CCN1CCOCC1)Cc1cc2cc3c(cc2nc1Cl)OCO3,6,-17,-3,3,x,-3,13,-16,
Oc1ccc(/C=N/Nc2ccc(C(F)(F)F)cn2)c(O)c1,10,102*,-8,-17,i,2,-41,x,
COC(=O)[C@@]1(Cc2ccc(OC)cc2)[C@H]2c3cc(C(=O)N4CCCC4)n(Cc4ccc(C)o4)c3C[C@H]2CN1C(=O)c1ccccc1,-6,x,x,x,x,2,-39,x,
C[C@@H]1CN([C@@H](C)CO)C(=O)CCCn2nncc2CO[C@H]1CN(C)Cc1ccc(Cl)c(Cl)c1,x,x,4,9,x,x,23[16.7 µM],-3&-4&-13,
Cc1cccc(CCN(C(=O)c2csnn2)C(C(=O)NC2CCCC2)c2ccco2)c1 (configuration not stated),-1,-8,0,2,i,2,12,-17,
O=C(Cc1c(F)cccc1Cl)Nc1ccncc1,8,6,5,-10,i,-7,x,-26,
c1ccc(COC(CN2CCCCCC2)CN2CCCCCC2)cc1,13,-9,6,8,i,38,14,x,
COc1ccc(C)cc1NC(=S)N1CCN(c2ncccn2)CC1,3,-3,3,6,i,-10,-3,-27,
CN(C)c1ccc(NC(=O)CCN2CCN(c3ccccn3)CC2)cc1,3,-19,4,5,i,5,6,-14,
CCC(=O)Nc1c(-c2ccccc2Cl)c(=O)c2ccccc2n1C,1,-8,0,5,i,6,-17,-3,
Cc1ccc2c(c1)c1c3n2CCN(C(=O)CN2CCN(C)CC2)C3CCC1 (configuration not stated),17,21,-6,-6,i,-2,7,2,
O=C(CSC(=S)N1CCOCC1)Nc1ncc2c(n1)CC(c1ccco1)CC2=O (configuration not stated),9,-8,-1,-2,i,1,-2,x,
CCCN(CC1CCCO1)C(=O)CCc1nnc(CCc2ccc(OC)cc2)o1 (configuration not stated),-9,-17,-2,0,i,1,1,-22,
CNC(=O)c1nc[nH]c1C(=O)NC,-10,7,5,4,i,-5,-29,-11,
CCOC(=O)CCP(=O)(O)C(C)(O)c1ccccc1 (configuration not stated),-5,-15,-10,1,i,14,16,-20,
Cc1ccccc1NC(=O)Cc1c[nH]c2ccccc12,-2,-10,3,3,i,8,4,7,
O=C(COc1ccc(Cl)cc1)NNC(=O)c1ccccn1,9,5,13,5,i,-10,x,-20,
O=C(CC(=O)NC1CCCCC1)N/N=C/c1cccc2ccccc12,25,-9,4,-6,i,-5,x,-14,
Cc1cc(C(=O)CN2C(=O)NC3(CCCC3)C2=O)c(C)n1-c1ccc2c(c1)OCO2,6,-3,-1,2,i,3,9,9,
OC1(C(F)(F)F)CC(O)(C(F)(F)F)n2nc(-c3ccccc3)cc2N1 (configuration not stated),-12,-1,-3,2,i,-15,-85,-4,
COC(=O)CN(C#N)c1nc(C)cc(C)n1,4,-13,-2,3,i,-1,4,-17,
O=C(COC(=O)c1cccnc1Nc1cccc(C(F)(F)F)c1)NCc1ccc2c(c1)OCO2,11,1,0,-1,i,-3,-18,-14,
CCOC(=O)N1CCN(CC(=O)Nc2ccc(F)cc2)CC1,-4,-11,-2,-2,i,-1,1,x,
CC(=O)Nc1ccc(N2S(=O)(=O)c3ccccc3S2(=O)=O)cc1,-7,10,3,3,x,-4,x,-13,
CCCCCC(=O)N1C[C@H](n2cc(C3CC3)nn2)[C@@H](O)C[C@@H]1c1ccccc1,x,x,4,3,x,x,-213,-1,
COc1ccccc1CCNS(=O)(=O)c1cc2c3c(c1)C(C)C(=O)N3CCC2 (configuration not stated),x,10,-1,0,i,x,2,-27,
COc1ccc(-n2c(Cc3cccn3C)nnc2SCC(=O)NCc2ccco2)cc1,-3,-7,2,6,i,-21,-9,-11,
CCN(CC(=O)Nc1c(F)cccc1F)C(=O)CC1CCCC1,x,14,6,-1,i,x,14,x,
CCOc1ccc(N2C(=O)CC(Sc3nc(C)cc(C)c3C#N)C2=O)cc1 (configuration not stated),2,9,x,x,i,2,x,x,
CCc1ccc(C(=O)Nc2ccc3c(c2)n(C)c(=O)n3C)cc1,-9,20,18,15,i,4,-23,-2,
COc1ccc(NC(=O)NNC(=O)COc2ccc(Cl)cc2C)cc1OC,3,-1,0,-1,i,7,-1,-6,
COc1ccc(OCC(=O)NNC(=S)NC(=O)c2ccc(Br)o2)cc1,9,x,5,4,i,5,11,-13,
COc1cc2c(cc1OC)CN(C(=O)CSc1nc(C)cc(C)c1C#N)CC2,2,-10,-1,2,i,11,x,-8,
COc1ccc(C2(CNC(=O)/C=C/c3ccco3)CCCC2)cc1OC,4,-5,-5,-1,i,-5,x,-5,
CCOc1ccccc1Nc1ccnc2cc(Cl)ccc12,-7,11,4,0,x,-11,9,-14,
C=CCN1C(=O)c2ccc(C(=O)N(CC)CC(=O)Nc3cc(Cl)ccc3C)cc2C1=O,x,4,-1,0,i,x,12,-12,
Cc1sc2nc(CSCC(=O)Nc3ccc(N4CCOCC4)cc3)[nH]c(=O)c2c1C,-1,1,-11,-3,i,-7,3,-1,
